Compound activity (PubChem BioAssay)
Mtb betalactam = beta-lactam sensitization of Mtb H37Rv | M. tuberculosis H37Rv growth with meropenem, percent inhibition; hits of this screen are not shown here | inhibition, % at 25 µM | 330,000 tested, 0.27% active;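 active = about 74% or more and at least 40 points above the plate without the antibiotic, then above 30% in a dose series; inconclusive = first-round hits that could not be retested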;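 note: growth measured after seven days incubation then overnight dye step; 0% = bacteria only wells and 100% = bacteria with antibiotic; twin plates without the antibiotic show which effects depend on it; some results filed as inactive read as strong as hits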
YopH inh = YopH (Yersinia) phosphatase inhibition; fluorescence Ex485/Em525; inhibition, %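 (about 10 µM by stock and volumes)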; 140,000 tested, 0.16% active; AID 898;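 active = inhibition of 50% or more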;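 note: controls were vehicle for no effect and minimum signal wells for full effect; inactives centre near -20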
Arbovirus inh = arbovirus infection inhibition. arbovirus infection cell-based antiviral screen. 200,000 tested, 0.37% active. inhibition, % at 10 µM;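 active = inhibition from about 30%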;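 note: bluetongue infection of BSR cells; cell survival read as ATP light after 72 h; 0% = infected wells without compound and 100% = uninfected wells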
Mtb H37Rv = M. tuberculosis H37Rv growth inhibitors, H37Rv strain (AID 1626); M. tuberculosis H37Rv growth inhibition; higher % means a stronger effect; 220,000 tested, 0.95% active; inhibition, % at 10 µM; hits with a dose series show IC50 in µM;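 active = confirmed in a dose series; inconclusive = inhibition above 80% but not taken into the dose series; inactive = below 80% or under 30% at every dose of the series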;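 note: bacteria incubated seven days before Alamar blue readout; 0% = bacteria only wells and 100% = bacteria with antibiotic wells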
RecA splice inh = inhibitors of M. tuberculosis RecA intein splicing; P9WHJ3; cell-free RecA intein splicing, fluorescence; inhibition, %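 (about 9 µM by stock and volumes)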; 290,000 tested, 0.75% active; in the data active = inhibition above about 30%; inconclusive = no clear call, values can overlap the other calls;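 note: 0% = vehicle wells and 100% = reference inhibitor control wells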
Target sequence (P9WHJ3 whole entry, looked up, canonical isoform): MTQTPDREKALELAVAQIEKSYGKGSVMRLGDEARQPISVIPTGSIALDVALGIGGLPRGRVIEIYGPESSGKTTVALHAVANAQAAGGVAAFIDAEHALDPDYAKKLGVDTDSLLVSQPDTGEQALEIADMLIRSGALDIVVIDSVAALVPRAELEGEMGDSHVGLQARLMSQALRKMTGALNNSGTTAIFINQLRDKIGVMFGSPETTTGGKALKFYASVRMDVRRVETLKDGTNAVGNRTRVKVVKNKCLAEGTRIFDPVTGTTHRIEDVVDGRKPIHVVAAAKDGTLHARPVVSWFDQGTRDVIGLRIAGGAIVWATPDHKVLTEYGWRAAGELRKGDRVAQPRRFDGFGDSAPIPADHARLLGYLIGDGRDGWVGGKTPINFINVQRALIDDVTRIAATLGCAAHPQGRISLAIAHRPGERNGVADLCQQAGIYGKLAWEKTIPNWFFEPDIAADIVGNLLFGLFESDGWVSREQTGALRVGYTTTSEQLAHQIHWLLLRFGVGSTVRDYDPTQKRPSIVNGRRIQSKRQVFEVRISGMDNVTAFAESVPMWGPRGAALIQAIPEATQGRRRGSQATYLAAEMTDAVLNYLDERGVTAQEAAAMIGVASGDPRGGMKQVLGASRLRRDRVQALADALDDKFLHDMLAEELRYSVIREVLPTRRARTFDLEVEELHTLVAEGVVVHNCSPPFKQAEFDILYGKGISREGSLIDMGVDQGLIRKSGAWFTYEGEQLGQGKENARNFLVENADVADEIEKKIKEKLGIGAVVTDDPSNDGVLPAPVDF
Arbovirus inh repeat = further read-out of Arbovirus inh, marked with its call; inhibition, %; measured here: 10K subset replicate screen; many hits read low in the repeat;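 first of two repeat runs on a subset; 0% = infected and 100% = uninfected wells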
* marks the source's active call; other numbers are inactive results; ? = inconclusive; . = no result given. Not all compounds are listed, so the mix of outcomes need not match the whole.

SMILES | Mtb betalactam | YopH inh | Arbovirus inh | Mtb H37Rv | RecA splice inh | others
Cc1cc2nc(-c3ccc(=O)[nH]c3)n(Cc3ccccc3)c2cc1C | -1 | . | . | . | 4.2
Cc1ccc(C)c(N2CCN(C(=O)CCS(=O)(=O)c3ccc4c(c3)oc(=O)n4C)CC2)c1 | 4 | . | . | . | 0.0
CCC(=O)NCCc1nc(-c2ccccc2)no1 | -7 | . | . | -5% | 0.5
Cc1ccc(N(C)S(=O)(=O)c2ccc(-c3cc(C)no3)s2)cc1 | 3 | . | . | . | -4.3
Cc1cc(C)cc(NS(=O)(=O)c2ccc(NC(=O)C3CCCCC3C(=O)O)cc2)c1 (configuration not stated) | 3 | -39 | 18 | -2% | 2.2
Cc1ccc(S(=O)(=O)c2nc(C)c3c(n2)CCC3)cc1 | 0 | -20 | 14 | -6% | 1.2
CSc1c(-c2ccccc2)nc2ccc(Cl)cc2c1C(=O)O | -6 | -10 | 9 | -5% | -0.3
CN(C)c1ccc(C(=S)N2CCOCC2)cc1Br | -4 | -35 | 0 | -2% | 4.0
COc1cc(/C=C2\CCn3c2nc2cc(C(=O)O)ccc2c3=O)ccc1OC(F)F | 2 | . | . | . | -3.2
CCCCN(C(=O)CC1CCCC1)c1c(N)n(CC(C)C)c(=O)[nH]c1=O | -8 | . | . | . | -1.7
COCCOC(=O)c1c(N)n(CCCN2CCOCC2)c2nc3ccccc3nc12 | -6 | . | . | -6% | -65
O=C(c1ccc(-c2ccccc2Cl)o1)N1CCN(c2ccccc2O)CC1 | -6 | . | . | . | 12
C=CCC(=O)N1CCCC(CO)(Cc2ccc(F)cc2F)C1 (configuration not stated) | -7 | . | . | . | -0.9
CCc1cc(CNC(=O)c2ccc(OC3CCN(C(C)=O)CC3)c(OC)c2)on1 | 2 | . | . | . | -2.1
Cc1sc2nc(COC(=O)c3ccc(O)cc3)[nH]c(=O)c2c1C | -3 | . | . | -7% | 0.1
Cc1cc(C)cc(OCCCC(=O)O)c1 | -14 | 29 | 2 | -3% | 3.4
COc1cccc2c(=S)c(CCC(C)=O)c(C)[nH]c12 | -3 | -14 | 1 | 0% | 1.4
COC(=O)c1ccccc1S(=O)(=O)N(CCCN1CCOCC1)Cc1cccs1 | -16 | -26 | 7 | -13% | -1.6
C=CCOc1ccc(/C=C/C(=O)OCC(=O)NCCc2ccccc2)cc1 | -1 | . | . | . | -0.1
CC(C)(C)c1ccc(S(=O)(=O)NC(Cc2ccccc2)C(=O)O)cc1 (configuration not stated) | 1 | -10 | 12 | -14% | -4.0
COc1ccc(-n2c(COc3ccc4c(c3)OCO4)nnc2SCC(=O)O)cc1 | 7 | . | -2 | -11% | -4.6
Cc1cccc(OCC(=O)NCCCNC(=O)c2cccnc2)c1 | 4 | . | . | . | -3.1
COc1ccc2nc(SCC(N)=O)[nH]c2c1 | -1 | -28 | 4 | -11% | .
CSc1ccc(/C=N/NC(=O)CNc2cccc3ccccc23)cc1 | -2 | -4 | -7 | 0% | 0.4
CC(C)SC1=NC(C)(C)C=C(/C=C/c2c(Cl)cccc2Cl)N1 | 7 | -11 | -21 | 22% | 13
CCn1cc(Br)c(C(=O)Nc2ccc(F)c(Cl)c2)n1 | -4 | -22 | -1 | -12% | 3.9 | Arbovirus inh repeat=4
COc1ccc(NS(=O)(=O)c2cccc(C(=O)NNC(=O)c3ccccc3O)c2)cc1 | 6 | . | . | . | 20
CCOC(=O)N1CCN(C(=O)CSc2ncccn2)CC1 | 1 | -29 | 5 | -7% | 0.3
Cc1ccc(C(=O)NCCNC(=O)CN2CCCC2)cc1 | 1 | -34 | 2 | -10% | -3.0 | Arbovirus inh repeat=4
CCOC(=O)/C(=N\Nc1ccccc1)c1csc(Nc2ccc(C)cc2)n1 | 94 | -7 | -7 | 26% | -1.4

A run of entries from the list above:
SMILES | Mtb betalactam | YopH inh | Arbovirus inh | Mtb H37Rv | RecA splice inh | others
COc1cccc2c(=S)c(CCC(C)=O)c(C)[nH]c12 | -3 | -14 | 1 | 0% | 1.4
COC(=O)c1ccccc1S(=O)(=O)N(CCCN1CCOCC1)Cc1cccs1 | -16 | -26 | 7 | -13% | -1.6
C=CCOc1ccc(/C=C/C(=O)OCC(=O)NCCc2ccccc2)cc1 | -1 | . | . | . | -0.1
CC(C)(C)c1ccc(S(=O)(=O)NC(Cc2ccccc2)C(=O)O)cc1 (configuration not stated) | 1 | -10 | 12 | -14% | -4.0

Additional results follow.
SMILES | Mtb betalactam | YopH inh | Arbovirus inh | Mtb H37Rv | RecA splice inh | others
O=c1[nH]c(=O)n(C2CCCCCC2)c(O)c1C=NCCCN1CCOCC1 | -4 | -11 | 10 | -6% | 0.0
CCn1c(CNC(=O)c2ccc(Cl)cc2)nnc1SCC(=O)NC1=NCCS1 | 4 | . | . | . | 0.5
O=C(Nc1ccc2c(c1)oc1ccccc12)c1cccnc1 | 74 | -22 | -11 | 39% | 0.0
O=C(c1ccc(C(F)(F)F)cc1)C1CCCN(C(=O)Cn2cnnn2)C1 (configuration not stated) | 4 | . | . | . | 0.7
O=C(c1ccc2c(=O)n(C3CCCC3)c(=S)[nH]c2c1)N1CCc2ccccc21 | 8 | -58 | -1 | 1% | 3.2
CC(C)c1[nH]nc2c1C(c1ccc(OC(=O)c3ccco3)cc1)C(C#N)=C(N)O2 (configuration not stated) | 99 | -42 | -3 | ? | 46*
CC(=O)c1cnn(-c2cc(Oc3cccc(C)c3)ncn2)c1C | 64 | 3 | 4 | 2% | -0.2
Cc1ccccc1OCc1nc2ccccc2c(=O)n1/N=C/c1cn[nH]c1-c1ccccc1 | 73 | -19 | -33 | 11% | 4.5
Cc1cccc(NS(=O)(=O)c2ccc(NC(=O)CN(c3cc([N+](=O)[O-])ccc3C)S(C)(=O)=O)cc2)c1 | 83 | 9 | -29 | 16% | 2.2
CC(c1ccccn1)N(CCN(C)C)C(=S)Nc1ccccc1F (configuration not stated) | -3 | -12 | 10 | -2% | -1.3
Cn1c(CN2CCOCC2)nnc1SCC(=O)NC1CCCCC1 | -17 | -16 | -2 | -6% | 2.8
Cc1cc(NC(=O)CSc2nnc(-c3c[nH]c4ccccc34)n2C)no1 | -5 | . | -3 | -7% | -8.9
O=C(CN(Cc1ccccc1)C(=O)CCC(=O)Nc1nccs1)NCc1ccc(F)cc1 | -1 | . | . | . | -1.7
CCOc1cc(N2CCOCC2)c(OCC)cc1NC(=O)c1cccc(N(C)C)c1 | 9 | . | -11 | 0% | 6.6
O=C(Nc1ccc(Cl)cc1)N(C1=NCCC1)c1ccc(OC(F)F)cc1 | 19 | 13 | -12 | 11% | 11
C/C(=N\Nc1nc2ccccc2[nH]1)c1cc2ccccc2o1 | 91 | -26 | -30 | 56% | 8.3
O=C(c1cncc(Br)c1)N1CCN(S(=O)(=O)c2ccccc2)CC1 | 1 | . | . | . | 0.5
CN(c1ccc(C(=O)Nc2ccccn2)cc1)S(=O)(=O)c1ccccc1 | 4 | . | -3 | 13% | 1.3
Cc1c(C)c2ccc(OCC(=O)Nc3ccc(N4CCC(C)CC4)cc3)cc2oc1=O | 5 | . | . | . | 1.3
O=C(NC1CCCC1)C1CC(=O)N(CCc2ccccc2)C1 (configuration not stated) | -13 | -26 | 2 | -8% | 2.1
Cc1cccc(C(=O)N(c2ccccn2)C(C)c2ccco2)c1 (configuration not stated) | -2 | . | 15 | -2% | -1.7
O=C(Nc1ccc2c(c1)OCO2)Nc1ccc(Br)cn1 | -3 | -18 | -16 | 1% | 0.2
COc1ccc(-c2nc(O)c3cnccn23)cc1 | 8 | 9 | -6 | 8% | -82
O=C1S/C(=C\c2ccccn2)C(=O)N1Cc1ccccc1F | -3 | -24 | -1 | -2% | -1.5
CCN(c1ccccc1)S(=O)(=O)c1c[nH]c2ccc([N+](=O)[O-])cc12 | 2 | . | . | . | 8.0
Cc1[nH]c2ccccc2c1C(c1ccncc1)N1CCN(c2ccccn2)CC1 (configuration not stated) | 4 | . | 7 | 2% | 5.9
Cc1cc(OCC(=O)N[C@@H](Cc2c[nH]c3ccccc23)C(=O)O)c2c(C)c(C)c(=O)oc2c1 | 0 | . | . | . | 2.9
COC(=O)c1cc(Cl)c(NC(=O)/C=C/c2ccc(OC)c(OC)c2)cc1OC | 8 | -19 | -6 | -1% | -15
COc1ccc(N2C(=O)C(Cl)=C(Nc3ccccc3OC)C2=O)cc1 | 3 | 1 | 2 | 3% | 0.3
COC(=O)CCC(=O)OC1(C)C(=O)C2=CN(CC(C)C)C(c3ccc(OC)cc3)=CC2=C(Br)C1=O (configuration not stated) | 6 | . | . | 4% | 1.1

Reprinted at random: 3 compounds from above.
SMILES | Mtb betalactam | YopH inh | Arbovirus inh | Mtb H37Rv | RecA splice inh | others
Cc1cccc(C(=O)N(c2ccccn2)C(C)c2ccco2)c1 (configuration not stated) | -2 | . | 15 | -2% | -1.7
Cc1[nH]c2ccccc2c1C(c1ccncc1)N1CCN(c2ccccn2)CC1 (configuration not stated) | 4 | . | 7 | 2% | 5.9
C/C(=N\Nc1nc2ccccc2[nH]1)c1cc2ccccc2o1 | 91 | -26 | -30 | 56% | 8.3

(cont.)
SMILES | Mtb betalactam | YopH inh | Arbovirus inh | Mtb H37Rv | RecA splice inh | others
Cc1cc(C)n(S(=O)(=O)c2ccc3oc(=O)ccc3c2)n1 | 2 | . | . | . | 1.1
CC(C)C[C@@H](N)c1nnc(SCC(=O)c2ccc(Cl)cc2)o1 | -14 | -15 | -5 | 10% | 0.1
CCCNC(=O)c1sc2c(c1C(=O)Nc1ccccn1)CCCC2 | 0 | . | -4 | 12% | 0.2
COc1cccc(CNC(=O)c2ccc(NC3=NC4CS(=O)(=O)CC4S3)cc2)c1 (configuration not stated) | -7 | . | . | . | -1.2
Cc1c(CNCc2cccs2)c(C(=O)O)c(C)n1Cc1ccccc1 | 1 | 23 | -4 | -3% | 2.2
COc1cccc(OC)c1NC(=O)Cc1nn(C)c(=O)c2ccccc12 | -7 | -49 | 1 | -12% | 1.6
COc1ccccc1-c1nn2c(-c3ccco3)nnc2s1 | 46 | -36 | -12 | -7% | -0.8
CCC1(CC)C(=O)NN(c2ccccc2)C1=O | -4 | -46 | 14 | -18% | -2.7
COCCOC(=O)C1=C(C)NC(=O)NC1c1ccc(-c2cc(Cl)ccc2Cl)o1 (configuration not stated) | 1 | . | -9 | 1% | 0.6
COc1ccccc1-c1nc(SCC(=O)NCC2CCCO2)c2c(=O)n(C)c(=O)n(C)c2n1 (configuration not stated) | -10 | . | 0 | -5% | 0.2
O=C(CN(Cc1ccccc1Cl)C(=O)c1csnn1)NCCc1ccccc1 | -2 | . | . | . | -1.9
NC(=O)c1ccc[n+](CC(=O)OCCC23CC4CC(CC(C4)C2)C3)c1 | -3 | -28 | 8 | -6% | 2.6
Nc1ccccc1NC(=O)CCn1c(=S)[nH]c2ccccc2c1=O | 1 | . | . | . | 0.1
NC(=O)c1nsc(C(=O)N(c2cccc(F)c2)C(C(=O)NCC2CCCO2)c2ccc3ncccc3c2)c1N (configuration not stated) | 4 | . | . | . | -10
CN(C)CC1CSCCC1(O)c1ccc(C(F)(F)F)cc1 (configuration not stated) | 5 | -29 | 3 | 16% | 0.0
c1ccc2[nH]c(CSc3nc4ccccc4o3)nc2c1 | -3 | -51 | 7 | 3% | -1.0
COc1cccc(CCNCc2ccc(SC)cc2)c1 | 3 | -7 | 3 | 5% | 1.8
CCOC(=O)C1CCN(C(=O)COc2ccc([N+](=O)[O-])cc2)CC1 | -5 | . | 5 | 4% | .
CCN(CC)C(=S)SC1=CCS(=O)(=O)C1 | 0 | . | 2 | -8% | -5.2
CC(=O)Nc1nnc(CSCc2ccccc2F)s1 | 3 | . | . | -5% | -1.4
Cc1ccccc1/C=N/n1c(C2CCCCC2)n[nH]c1=S | ? | . | . | . | -0.2
O=C(N/N=C/C(Br)=C\c1ccccc1)c1n[nH]c2c1CCC2 | ? | -1 | -33 | . | 4.5
CCOC(=O)c1ccc(NC(=S)NCCc2ccc(OC)c(OC)c2)cc1 | 46 | . | . | 50% | 4.3
COc1ccc(CN(CC(=O)NCc2ccc(F)cc2)C(=O)CCC(=O)Nc2cc(C)ccn2)cc1 | 4 | . | . | . | 1.3
CCCCn1ccnc1C(=O)c1cc(S(=O)(=O)N2CCOCC2)ccc1C | -5 | -28 | 4 | -10% | -0.2
CCc1c(C(=O)N2CCOCC2)csc1C | 1 | -45 | 6 | 1% | 1.4
O=C(Nc1ccc(S(=O)(=O)N2CCOCC2)cc1)c1ccc(S(=O)(=O)N2CCOCC2)cc1 | -3 | . | . | . | 0.2
Cn1c(SCc2ccccc2F)nc2ccccc2c1=O | 3 | . | . | . | 1.7
O=C(NCc1ccccc1)C(c1cccnc1)N(C(=O)c1ccccn1)c1ccccc1F (configuration not stated) | 8 | . | . | . | -1.4
